Assay outcomes as filed in PubChem BioAssay.
PD-1 reversal: activators reversing PD-1 mediated T-cell inhibition, primary screen, luminescence, primary human CD4 T cells, PD-L1 beads | CellTiter-Glo 96 h | activation, % (test concentration not listed) | 29,000 tested, under 10 active | AID 2316, 2010;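 active means replicate mean of 50% or more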;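 further: 0% = median vehicle wells and 100% = positive control; 100 nL library stock added to about 50 µL; numbers are from one replicate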
MITF inh: inhibitors of MITF, primary screen, MITF inhibitor project, cell-based, luminescence; inhibition, % (no concentration beside the values); 37,000 tested, 0.28% active; TRPM1 promoter luciferase, 24 h;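 active means most replicates at 85% or more, or half of them and the mean; inconclusive means half reach 85% but not the mean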;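 further: human melanocyte line stably carrying TRPM1 promoter luciferase reporter; 0% = vehicle wells and 100% = a positive control; the first replicate is given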
Shh pathway inh: Hedgehog pathway signaling inhibitors, primary screen, luminescence, Shh-LIGHT2 cells, Gli-luciferase; Shh-LIGHT2 Gli-luciferase reporter, 30 h; inhibition, % (no concentration beside the values); 22,000 tested, 2.1% active; AID 2313, 2010;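 active means replicate mean of 65% or more; inconclusive means mean lower but half the replicates past it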;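 further: pathway switched on by Shh-conditioned medium diluted 1 in 25 in low serum; 100 nL library stock added to about 40 µL; 0% = median of neutral wells and 100% = positive control level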
YB-1 expr inh: inhibitors of YB-1 gene expression, primary screen, cell-based, fluorescence; 30,000 tested, 0.37% active; delta delta Cp (YB-1 minus CDIP) (test concentration not listed); U2OS, qRT-PCR YB-1 vs CDIP delta delta Cp, 16 h; stronger effect = higher value; zero = DMSO, each unit about twofold; AID 434959, 2010;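 active means delta delta Cp rounded down to an integer at or above 3, about 3 SD of DMSO wells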;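 further: higher means less YB-1 transcript or more CDIP transcript relative to DMSO; stock transfer was 100 nL into about 100 µL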
Active calls of the source: *; u = inconclusive; x = not tested or not shown. These rows are one share of the data. The share of hits here may be higher or lower than overall.

| Compound | PD-1 reversal | MITF inh | Shh pathway inh | YB-1 expr inh |
| --- | --- | --- | --- | --- |
| Cc1noc(C)c1S(=O)(=O)N(C)C[C@H]1Oc2c(cccc2N(C)C)C(=O)N([C@@H](C)CO)C[C@@H]1C | 0.8 | 6 | 10 | 0.12 |
| Cc1ccc(S(=O)(=O)Nc2ccc3c(c2)CC(=O)N([C@@H](C)CO)C[C@H](C)[C@H](CN(C)C(=O)Nc2ccccc2)O3)cc1 | 0.6 | 4 | x | -0.53 |
| Cc1noc(C)c1NC(=O)Nc1ccc2c(c1)CC(=O)N([C@@H](C)CO)C[C@@H](C)[C@@H](CN(C)C(=O)NC(C)C)O2 | x | 9 | x | 0.071 |
| Cc1ccc(S(=O)(=O)Nc2ccc3c(c2)C(=O)N([C@@H](C)CO)C[C@H](C)[C@H](CN(C)S(=O)(=O)c2ccc(F)cc2)O3)cc1 | -0.9 | -2 | x | -0.27 |
| C[C@@H]1CN([C@@H](C)CO)C(=O)c2cccc(NS(=O)(=O)c3cccs3)c2O[C@@H]1CN(C)C(=O)Nc1cccc2ccccc12 | 2.1 | 6 | 22 | 0.13 |
| Cc1ccc(S(=O)(=O)N(C)C[C@@H]2Oc3ccc(NC(=O)Nc4ccccc4)cc3C(=O)N([C@@H](C)CO)C[C@@H]2C)cc1 | -1.0 | -11 | -36 | 0.12 |
| C[C@H](CO)N1C[C@H](C)[C@H](CN(C)C(=O)NC2CCCCC2)Oc2ccc(NC(=O)Nc3cccc4ccccc34)cc2CC1=O | x | -6 | -15 | -0.2 |
| C[C@@H]1CN([C@H](C)CO)C(=O)c2cccc(NC(=O)NC3CCCCC3)c2O[C@@H]1CN(C)CC1CCCCC1 | 2.1 | -5 | 23 | 0.031 |
| C[C@@H]1CN([C@H](C)CO)C(=O)c2cccc(NC(=O)NC3CCCCC3)c2O[C@@H]1CN(C)Cc1ccc(C(=O)Nc2ccccc2N)cc1 | -0.6 | 16 | x | 0.11 |
| CC(C)NC(=O)Nc1ccc2c(c1)C(=O)N([C@H](C)CO)C[C@H](C)[C@@H](CN(C)S(C)(=O)=O)O2 | 0.9 | 1 | -7 | 0.13 |
| O=C1NC(=O)C(c2ccccc2)(c2ccccc2)N1 | x | -1 | -8 | -0.62 |
| CC(C)NC(=O)Nc1cccc2c1O[C@H](CN(C)Cc1ccc(Oc3ccccc3)cc1)[C@@H](C)CN([C@@H](C)CO)C2=O | -2.8 | 44 | 59 | 0.34 |
| CC(C)NC(=O)Nc1ccc2c(c1)C(=O)N([C@@H](C)CO)C[C@H](C)[C@H](CN(C)Cc1ccc(Cl)c(Cl)c1)O2 | 2.4 | -3 | x | -0.18 |
| C[C@@H]1CN([C@H](C)CO)C(=O)Cc2cc(NC(=O)Cc3cn(C)c4ccccc34)ccc2O[C@@H]1CN(C)C(=O)NC1CCCCC1 | -0.6 | 1 | -6 | 0.13 |
| Cc1noc(C)c1NC(=O)N(C)C[C@@H]1Oc2ccc(NC(=O)NC3CCCCC3)cc2CC(=O)N([C@H](C)CO)C[C@H]1C | 1.5 | -10 | x | -0.13 |
| COc1ccc(NC(=O)Nc2ccc3c(c2)CC(=O)N([C@H](C)CO)C[C@@H](C)[C@H](CN(C)S(=O)(=O)c2ccc(OC)cc2)O3)cc1 | -0.8 | -2 | x | -0.008 |
| Cc1noc(C)c1NC(=O)N(C)C[C@H]1Oc2c(cccc2N(C)C)C(=O)N([C@H](C)CO)C[C@H]1C | 1.9 | -3 | -47 | -0.46 |
| CCc1cc2c(=O)n(-c3ccccc3)c(SCC(=O)O)nc2s1 | 3.5 | -2 | x | x |
| C[C@@H]1CN([C@H](C)CO)C(=O)c2cc(NS(=O)(=O)c3ccccc3)ccc2O[C@@H]1CN(C)CC1CCCCC1 | -0.2 | -10 | x | -0.048 |
| Cc1ccc(S(=O)(=O)N(C)C[C@H]2Oc3ccc(NC(=O)Nc4ccccc4)cc3CC(=O)N([C@@H](C)CO)C[C@H]2C)cc1 | -0.6 | 26 | 2 | 0.092 |
| Cc1ccc(S(=O)(=O)Nc2ccc3c(c2)C(=O)N([C@H](C)CO)C[C@H](C)[C@H](CN(C)S(=O)(=O)c2ccc(F)cc2)O3)cc1 | x | 7 | -6 | 0.15 |
| C[C@H]1CN([C@@H](C)CO)C(=O)Cc2cc(NC(=O)CCN3CCOCC3)ccc2O[C@@H]1CN(C)Cc1ccccc1 | 0.4 | -7 | x | -0.064 |
| C[C@H]1CN([C@@H](C)CO)C(=O)c2cc(NC(=O)c3ccncc3)ccc2O[C@H]1CN(C)Cc1ccc2c(c1)OCO2 | -1.6 | -2 | x | -0.55 |
| Cc1noc(C)c1NC(=O)Nc1cccc2c1O[C@@H](CN(C)Cc1ccncc1)[C@@H](C)CN([C@@H](C)CO)C2=O | x | 3 | -29 | -0.014 |
| Cc1cc(C)nc(NC(=O)COc2ccc([N+](=O)[O-])cc2)n1 | 2.3 | -27 | x | x |
| C[C@@H]1CCCCO[C@H](CN(C)C)[C@@H](C)CN([C@H](C)CO)C(=O)c2cc(NC(=O)C3CCCCC3)ccc2O1 | -0.6 | -2 | -29 | 0.5 |
| Cc1noc(C)c1NC(=O)N(C)C[C@H]1Oc2c(NC(=O)C3CCOCC3)cccc2C(=O)N([C@@H](C)CO)C[C@@H]1C | 2.7 | -5 | 10 | -0.19 |
| CCOC(=O)c1nnn2c1nc(N(CC)CC)c1ccccc12 | -0.3 | 8 | x | -0.57 |
| CCc1nc(-c2ccc(OC)cc2)cc2cc(OC)c(OC)cc12 | -0.6 | -9 | 12 | -0.48 |
| COc1ccc(OC)c(C2Nc3nc4ccccc4n3C(C)=C2C(=O)Nc2ccc(C)cc2C)c1 (stereo not drawn) | -1.0 | 5 | x | x |
| C[C@@H]1CN([C@H](C)CO)C(=O)c2cc(NC(=O)C3CC3)ccc2O[C@@H]1CN(C)CC1CC1 | x | -1 | -8 | 0.21 |
| C[C@]12CCC3c4ccc(O)cc4CCC3C1CC[C@@H]2OC(=O)CCC1CCCC1 (stereo partly drawn) | x | 10 | u | 0.55 |
| O=C(CSc1nc2ccccc2c(=O)[nH]1)Nc1ccccc1C(=O)c1ccccc1 | 1.6 | 8 | x | x |
| COc1ccc(CCCc2nnc(SCC(=O)Nc3cc(F)ccc3C)o2)cc1C | 0.7 | 4 | -21 | -0.59 |
| O=C1C=CC(O)(/C=C/C(=O)O[C@@H]2[C@@H](O)[C@H](Oc3ccc(O)cc3)O[C@H](CO)[C@H]2O)C=C1 | -2.3 | -5 | -12 | 0.15 |
| C[C@@H]1CN([C@@H](C)CO)C(=O)Cc2cc(NC(=O)Nc3cccc4ccccc34)ccc2O[C@@H]1CN(C)S(C)(=O)=O | -0.7 | 8 | 27 | 0.17 |
| C[C@@H]1CN([C@@H](C)CO)C(=O)c2cc(NS(=O)(=O)c3cccs3)ccc2O[C@@H]1CN(C)CC1CC1 | 1.2 | 0 | -17 | 0.019 |
| CC12CCC3c4ccc(OC(=O)c5ccccc5)cc4CCC3C1CCC2O (stereo not drawn) | x | 16 | -9 | 0.35 |
| C[C@@H]1CCCCO[C@H](CN(C)S(=O)(=O)c2cccs2)[C@@H](C)CN([C@H](C)CO)C(=O)c2cc(NS(=O)(=O)c3ccc(Cl)cc3)ccc2O1 | x | 2 | 10 | 0.4 |
| C[C@@H]1CN([C@H](C)CO)C(=O)Cc2cc(NS(=O)(=O)c3cn(C)cn3)ccc2O[C@H]1CN(C)C(=O)Nc1ccc(C(F)(F)F)cc1 | 0.0 | -4 | x | -0.11 |

Other compounds
Each structure is followed by: PD-1 reversal	MITF inh	Shh pathway inh	YB-1 expr inh
CC(C)NC(=O)N(C)C[C@@H]1Oc2c(NC(=O)C3CC3)cccc2C(=O)N([C@H](C)CO)C[C@@H]1C
 : -1.1	-8	6	0.1
COc1ccc(S(=O)(=O)N(C)C[C@H]2Oc3ccc(NS(=O)(=O)c4cn(C)cn4)cc3CC(=O)N([C@@H](C)CO)C[C@@H]2C)cc1
 : 2.6	-4	-7	0.34
C[C@H]1CN([C@@H](C)CO)C(=O)c2cccc(NS(=O)(=O)c3cn(C)cn3)c2O[C@@H]1CN(C)Cc1ccncc1
 : x	-2	-28	-0.12
C[C@@H]1CN([C@H](C)CO)C(=O)c2cc(NS(C)(=O)=O)ccc2O[C@@H]1CN(C)Cc1ccc(C(=O)O)cc1
 : 2.3	-5	-17	0.0023
O=C(CN1C(=O)C2C3C=CC(C4CC34)C2C1=O)Nc1ccc(Oc2ccc(Br)cc2)cc1 (stereo not drawn)
 : -1.7	72	x	x
c1ccc(-n2c(SCc3nc4ccccc4[nH]3)nnc2-c2cnccn2)cc1
 : -0.1	14	x	x
COc1ccc(S(=O)(=O)N(C)C[C@@H]2Oc3ccc(NC(=O)Cc4cn(C)c5ccccc45)cc3C(=O)N([C@H](C)CO)C[C@H]2C)cc1
 : -1.8	11	-10	-0.32
CC(C)NC(=O)N(C)C[C@@H]1Oc2ccc(NC(=O)Cc3cn(C)c4ccccc34)cc2C(=O)N([C@@H](C)CO)C[C@H]1C
 : x	2	x	-0.077
COc1ccc(C(=O)Nc2ccccc2C(=O)NCC2CCCO2)cc1 (stereo not drawn)
 : -0.3	-25	x	x
C[C@H](CO)N1C[C@H](C)[C@H](CN(C)Cc2ccc(C(=O)O)cc2)Oc2ccc(NC(=O)CCN3CCOCC3)cc2CC1=O
 : 2.3	-3	5	0.19
CC(C)NC(=O)N(C)C[C@H]1Oc2ccc(NS(=O)(=O)c3cccs3)cc2CC(=O)N([C@@H](C)CO)C[C@@H]1C
 : 2.4	-18	-8	0.15
C[C@H](CO)N1C[C@H](C)[C@H](CN(C)C(=O)Nc2cccc3ccccc23)Oc2ccc(NC(=O)NC3CCCCC3)cc2C1=O
 : -1.4	-1	16	-0.6
CC(=O)Oc1cc(OC(C)=O)c2c(c1)O[C@H](c1ccc(OC(C)=O)c(OC(C)=O)c1)[C@H](OC(C)=O)C2
 : x	0	11	0.03
C[C@H]1CN([C@@H](C)CO)C(=O)c2cc(NC(=O)Nc3ccc4c(c3)OCO4)ccc2O[C@H]1CN(C)C(=O)Nc1ccc(C(F)(F)F)cc1
 : x	3	-2	-0.23
C[C@@H]1CN([C@H](C)CO)C(=O)c2cc(NS(=O)(=O)c3ccc(F)cc3)ccc2O[C@@H]1CN(C)S(=O)(=O)c1ccc(F)cc1
 : -0.1	-8	14	-0.095
C[C@H](CO)N1C[C@H](C)[C@@H](CN(C)C(=O)Nc2ccc3c(c2)OCO3)Oc2ccc(NC(=O)Nc3cccc4ccccc34)cc2C1=O
 : 0.0	3	23	-0.2
O=C(CCN1C(=O)c2cccc3cccc(c23)C1=O)N1CCN(c2ncccn2)CC1
 : 3.8	31	x	x
CC(C(O)c1ccc(O)cc1)N1CCC(Cc2ccccc2)CC1 (stereo not drawn)
 : x	4	-10	0.26
C[C@H](CO)N1C[C@H](C)[C@@H](CN(C)C(=O)Nc2ccccc2)Oc2ccc(NC(=O)Cn3cnnn3)cc2C1=O
 : x	-14	2	0.12
C[C@@H]1CN([C@@H](C)CO)C(=O)c2cccc(NC(=O)c3nc4ccccc4s3)c2O[C@H]1CN(C)S(=O)(=O)c1cn(C)cn1
 : 1.8	-12	-10	0.22

Molecules from the list above that contain a CF3 group, in the order listed:
Each structure is followed by: PD-1 reversal	MITF inh	Shh pathway inh	YB-1 expr inh
C[C@@H]1CN([C@H](C)CO)C(=O)Cc2cc(NS(=O)(=O)c3cn(C)cn3)ccc2O[C@H]1CN(C)C(=O)Nc1ccc(C(F)(F)F)cc1
 : 0.0	-4	x	-0.11
C[C@H]1CN([C@@H](C)CO)C(=O)c2cc(NC(=O)Nc3ccc4c(c3)OCO4)ccc2O[C@H]1CN(C)C(=O)Nc1ccc(C(F)(F)F)cc1
 : x	3	-2	-0.23

More compounds:
Each structure is followed by: PD-1 reversal	MITF inh	Shh pathway inh	YB-1 expr inh
C[C@H](CO)N1C[C@H](C)[C@H](CN(C)Cc2ccc3c(c2)OCO3)Oc2c(NC(=O)C3CCCCC3)cccc2C1=O
 : -0.3	6	-9	-0.59
Cc1ccc(S(=O)(=O)N(C)C[C@H]2Oc3ccc(NC(=O)Nc4c(C)noc4C)cc3CC(=O)N([C@H](C)CO)C[C@H]2C)cc1
 : -0.2	-7	16	-0.49
COc1ccc(NC(=O)N(C)C[C@@H]2Oc3c(NC(=O)C4CC4)cccc3C(=O)N([C@H](C)CO)C[C@H]2C)cc1
 : 2.3	7	-8	-0.48
COc1cc(/C(C)=C/C(C)CCCC(=O)O)oc(=O)c1C (stereo not drawn)
 : 0.4	6	-24	0.14

Single records, from the list above. Order of screens: PD-1 reversal | MITF inh | Shh pathway inh | YB-1 expr inh
C[C@H](CO)N1C[C@H](C)[C@H](CN(C)Cc2ccc3c(c2)OCO3)Oc2c(NC(=O)C3CCCCC3)cccc2C1=O in the list: -0.3 | 6 | -9 | -0.59
Cc1ccc(S(=O)(=O)N(C)C[C@H]2Oc3ccc(NC(=O)Nc4c(C)noc4C)cc3CC(=O)N([C@H](C)CO)C[C@H]2C)cc1 in the list: -0.2 | -7 | 16 | -0.49
